# Compound activity from PubChem BioAssay.
# Sa helicase inh – blocks Staphylococcus aureus DNA helicase; purified S. aureus helicase, fluorescence unwinding assay; about half of the hits fall short of the stated cut; inhibition, %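 (tested at about 80 µM)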; hit rate 0.05% among 120,000;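 active means both duplicates at 50% or more, or one of them with a favoured structure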;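 further: 0% = mean of negative control wells and 100% = mean of positive control wells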
# MgrA-DNA mod – alters Staphylococcus aureus MgrA binding to DNA. fluorescence polarization. AID 602314. hit rate 0.13% among 84,000. inhibition, %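 (about 10 µg/mL by stock and volumes)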;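 active means above 50% in either of two replicates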;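 further: 0% = protein plus DNA without compound and 100% = DNA alone without protein; higher means less MgrA bound to DNA so lower polarization; one replicate is shown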
# Numbers without * were called inactive; . = no result given. A portion of the library. The share of hits here may be higher or lower than overall.
# Values in the order – Sa helicase inh	MgrA-DNA mod
> Cc1nc2ccccc2n1CC1CC1(Cl)Cl (stereo not drawn)
    -9.0	.
> Cc1cc(C(F)(F)F)nc2sc(C(=O)Nc3ccc(C(N)=O)cc3)c(N)c12
    -1.0	-1.4
> Cc1ccc(Nc2nc(N)c([N+](=O)[O-])c(Nc3ccc(C)cc3)n2)cc1
    .	-0.1
> Cn1c(COc2ccc(C(C)(C)c3ccccc3)cc2)n[nH]c1=S
    6.0	-0.3
> CC(C)CNc1nc(Oc2ccc(=O)n(C)n2)nc(N2CCOCC2)n1
    7.0	.
> CC1=C(C(=O)Nc2ccc(Cl)cc2C(=O)N2CCN(c3ccccc3)CC2)SCCO1
    13.0	0.0
> NC(=O)C1=C(N)NC(=S)NC1c1ccccc1 (stereo not drawn)
    13.0	.
> NNc1nc2ccccc2[nH]c1=S
    10.0	19.1
> O=C(Nc1ccc(-c2nc3ncccc3o2)cc1)c1ccc([N+](=O)[O-])o1
    .	0.2
> CCOC(=O)N1CCN(C2CC(=O)N(c3ccc(I)cc3C)C2=O)CC1 (stereo not drawn)
    5.0	-1.6
> O=C(N/N=C/c1ccc(-c2ccc(S(=O)(=O)Nc3ncccn3)cc2)o1)c1cccnc1
    14.0	.
> O=C(COC(=O)c1c[nH]c(=O)[nH]c1=O)Nc1ccccc1
    -1.0	.
> Brc1ccc2c3c(ccc2c1)OCN(c1ccccc1)C3
    5.0	0.2
> Cn1c(=O)cc(Cl)c2ccccc21
    38.0	.
> CCCS(=O)(=O)c1nc(S(=O)(=O)c2ccc(Cl)cc2)c(N2CCC(O)CC2)s1
    20.0	.
> CN1N=C(C(C)(C)C)CSC1=Nc1ccc(F)cc1
    -14.0	.
> COc1ccccc1C1CC(=O)NC(SCC(=O)Nc2ccc(Br)cc2)=C1C#N (stereo not drawn)
    .	-0.3
> C=CCN(C(=O)c1ccc(Cl)cc1Cl)c1nnc(-c2ccncc2)s1
    9.0	.
> Cc1ccc(CNc2nc(C)c3nc(-c4ccccc4)oc3n2)cc1
    1.0	.
> Cc1[nH][nH]c(=O)c1N=Nc1ccccc1
    36.0	.

# Sorted by molecular weight (falling): 6 of the compounds above
# Values in the order – Sa helicase inh	MgrA-DNA mod
> CC1=C(C(=O)Nc2ccc(Cl)cc2C(=O)N2CCN(c3ccccc3)CC2)SCCO1
    13.0	0.0
> O=C(N/N=C/c1ccc(-c2ccc(S(=O)(=O)Nc3ncccn3)cc2)o1)c1cccnc1
    14.0	.
> C=CCN(C(=O)c1ccc(Cl)cc1Cl)c1nnc(-c2ccncc2)s1
    9.0	.
> Cn1c(COc2ccc(C(C)(C)c3ccccc3)cc2)n[nH]c1=S
    6.0	-0.3
> Cn1c(=O)cc(Cl)c2ccccc21
    38.0	.
> NNc1nc2ccccc2[nH]c1=S
    10.0	19.1

# (next part)
# Values in the order – Sa helicase inh	MgrA-DNA mod
> OCc1cn(-c2ccccc2)nc1-c1cccs1
    -16.0	-0.8
> O=C(CSc1ncnc2sccc12)N1CCC(c2nc3ccccc3o2)CC1
    -20.0	.
> COC(=O)CN1C(=O)CSc2ncccc21
    18.0	3.6
> C=CCOc1ccc2ccccc2c1/C=N/O
    .	-0.1
> CCCOC(=O)Cc1n[nH]c(=O)[nH]c1=O
    3.0	.
> CN1c2ccccc2C(=O)/C(=C\Nc2cccnc2)S1(=O)=O
    .	-0.6
> CCc1ccc(S(=O)(=O)N2CCn3cccc3C2c2ccc(OC)c(OC)c2)s1 (stereo not drawn)
    3.0	.
> N#Cc1ccc(Oc2ccc(C(F)(F)F)cc2N)cc1
    .	4.4
> Cc1nc2ccc(Cc3ccc4nc(C)[nH]c4c3)cc2[nH]1
    0.0	.
> CCc1ccc(C(=O)NC(C)C2CCCO2)s1 (stereo not drawn)
    2.0	1.8
> c1ccc(-c2nc3c4ccccc4ccn3c2CN2CCOCC2)cc1
    13.0	0.3
> Nc1ccc(C(=O)OCc2nc3ccccc3[nH]2)cc1
    3.0	.
> NS(=O)(=O)c1ccc(CCNC(=O)c2ccc(Cl)cc2)cc1
    5.0	1.4
> CC(C)=CC(NCc1ccccc1O)C(=O)O (stereo not drawn)
    .	-2.0
> CC(C)CN(C(=O)CSc1nc(N)cc(N)n1)C1CCS(=O)(=O)C1 (stereo not drawn)
    8.0	.
> CCOC(=O)c1c(/N=C/c2c(O)n(C)c3ccccc23)sc(C)c1C
    -19.0	20.9
> Cc1c(Br)c(=O)[nH]c(=O)n1COCc1ccccc1
    17.0	.
> Nc1ccccc1Oc1ccc2ccccc2c1
    6.0	-2.2
> Cc1c(Cl)ccc2c1NC(=O)C2(O)N1CCCC(C)C1 (stereo not drawn)
    -16.0	.
> O=C(OCCN1C(=O)c2ccccc2C1=O)c1cc2ccccc2oc1=O
    -7.0	.
> COc1ccc(C2C(C#N)=C(N)OC3=C2C(=O)CC(C)(C)C3)cc1Cn1nc(C)c([N+](=O)[O-])c1C (stereo not drawn)
    .	-1.1
> COc1cc(C(=O)CSc2ccc(C)cc2)cc(OC)c1OC
    9.0	.
> FC(F)(F)c1cccc(N2CCN(C3=Cc4ccccc4CC3)CC2)c1
    .	-1.4
> O=C(/C=C/c1ccc(Br)o1)NC1=NCCS1
    15.0	-0.5
> O=C(N/N=C/c1ccncc1)C1CCCCC1
    21.0	1.0
> CC(NC(=O)CN(C)C1CCS(=O)(=O)C1)c1ccccc1 (stereo not drawn)
    -8.0	.
> O=C(c1ccccc1)N1CCC(c2ccncc2)CC1
    -9.0	-0.3
> O=C(Nc1ccc(Cl)cc1OC(F)(F)F)c1ccco1
    .	-2.2
> O=C(ON1C(=O)c2cccc3cccc(c23)C1=O)c1ccccc1
    9.0	.
> COC(=O)NCC(c1ccc2c(c1)OCO2)N1CCN(c2ccccc2)CC1 (stereo not drawn)
    4.0	.
> Cc1c(-n2c(O)c(C3=c4ccccc4=NC3=O)sc2=O)c(=O)n(-c2ccccc2)n1C
    -13.0	0.8
> Nc1ccc(O)cn1
    1.0	.
> CC(C)C(NS(=O)(=O)c1ccc2c(c1)OCCO2)C(=O)OCc1cn2cc(Cl)ccc2n1 (stereo not drawn)
    13.0	.
> N#Cc1cccc(NC(=O)Cc2ccccc2)c1
    6.0	-0.7
> CCOC(=O)Cc1csc(NC(=O)COc2cccc3ccccc23)n1
    -4.0	.
> COc1ccccc1NC(=O)CN1c2cccc3cccc(c23)S1(=O)=O
    -1.0	1.1
> Cc1cc(C)c(C=C2C(=O)CCCC2=O)[nH]1
    .	0.4
> CC(C)(CC(=O)O)CC(=O)N1CCN(c2ncccc2C#N)CC1
    .	2.1
> O=C1CCCCC1Sc1nnc(-c2ccc3c(c2)OCO3)o1 (stereo not drawn)
    -12.0	.
> COC(=O)C1=C(C)NC(C)=C(C(=O)OC)C1C
    .	2.1

# More structures.
SMILES	Sa helicase inh	MgrA-DNA mod
Nc1nnc(-c2ccc([N+](=O)[O-])o2)s1	.	0.5
N#Cc1cnc(-c2ccncc2)nc1-c1cccs1	.	2.4
Cc1csc2c(=O)n(CCN3CCSCC3)c(=O)[nH]c12	.	-0.4
O=C(NCCN1CCOCC1)C1CCCN1S(=O)(=O)c1ccc(Cl)cc1 (stereo not drawn)	-5.0	.
Cc1c(Cc2ccccc2)c(=O)oc2c(C)c(OCC(=O)O)ccc12	-3.0	.
NOCC(=O)N1CCOCC1	.	-1.3
NC1=NN=C2CCCN3C(=C12)C=Cc1ccccc13	6.0	.
O=C(CSCc1cc(=O)[nH]c(=O)[nH]1)NCc1ccc(Cl)cc1	-15.0	.
O=C1Nc2ccccc2SC1Nc1ccc(-c2nnc3n2CCCCC3)cc1 (stereo not drawn)	4.0	.
CC(C)c1ccc(/C=C/C(=O)CCC(=O)O)cc1	.	9.2
COC(=O)c1ccc(CS(=O)(=O)c2ccccc2C)o1	3.0	.
c1ccc2[nH]c(C3CCCN3)nc2c1 (stereo not drawn)	8.0	.
CSC1=NCCN1S(C)(=O)=O	28.0	.
O=c1oc2ccccc2cc1-c1nnc(-c2cccc(Br)c2)o1	7.0	3.6
COc1ccc2c(c1)sc1nc(=O)ccn12	15.0	.
CC1=C(C(=O)OC2CCCCCC2)C(c2cc3c(cc2Br)OCO3)NC(=O)N1 (stereo not drawn)	.	-1.0
C=CCN(C(=O)COc1ccccc1)c1nnc(-c2ccncc2)s1	6.0	.
O=C1C=CC(=O)N1CCc1ccc(Cl)cc1	-17.0	.
CS(=O)(=O)c1ccc2nc(NC(=O)c3ccc(C(=O)c4ccccc4)cc3)sc2c1	-1.0	.
O=C(c1cccc(C(F)(F)F)c1)c1cc2cc(Cl)ccc2oc1=O	.	-0.6
CCOC(=O)N1CCN(C(=O)CNC(=O)c2cc(C)cc(C)c2)CC1	-5.0	.
CN(C(=O)CSc1nc2ccccc2c(=O)n1-c1ccc(F)cc1)C1CCS(=O)(=O)C1 (stereo not drawn)	-3.0	.
COc1cccc(-c2nc3ccccc3c(=O)n2NC(=O)Cn2nc(C)c([N+](=O)[O-])c2C)c1	.	-1.8
CCCSc1nnc2c(n1)OC(c1cc(Br)ccc1OC)Nc1ccccc1-2 (stereo not drawn)	.	1.7
COc1cccc(C2=NOC(C(=O)N3CCCCC3)C2)c1 (stereo not drawn)	-5.0	.
[O-]/[N+](=C\c1ccncc1)c1ccccc1	3.0	.
Cc1onc(-c2c(F)cccc2Cl)c1C(=O)ONC(=O)c1ccccc1	-16.0	.
CCn1c(=O)[nH]c2ccccc21	18.0	.
O=C(O)C1C2C=CC3(CN(Cc4ccncc4)C(=O)C13)O2 (stereo not drawn)	18.0	-4.8
O=S(=O)(c1ccc2c(c1)CCO2)N1CCN(c2ccc(F)cc2)CC1	.	2.9
CC1=C(C#N)C(c2ccc(Br)cc2)C2=C(CCCC2=O)N1 (stereo not drawn)	-16.0	.
Cc1nc(/C(N)=N/OC(=O)c2c(-c3ccccc3Cl)noc2C)cs1	8.0	.
O=c1oc(-c2ccc(-c3ccccc3)cc2)nc2ccccc12	-4.0	.
COC(=O)c1ccccc1NC(=O)COC(=O)C1=NNC(=O)CC1	8.0	.
O=S(=O)(NCc1ccccn1)C1=Cc2ccccc2CC1	-6.0	.
Cc1nn(C)c(Oc2cccc(Cl)c2)c1C(=O)O	.	-0.1
COc1ccc(-c2c(C)nn3c(N4CCC(C)CC4)cc(C)nc23)cc1OC	14.0	-0.6
CCCCOC(=O)c1ccc(NC(=O)C2COc3ccccc3O2)cc1 (stereo not drawn)	.	-3.0
CCOC(=O)c1cc(C)sc1NC(=O)c1ccc(C)cc1	6.0	-3.2
Cc1cc2c(cc1S(=O)(=O)C(C)CC(=O)N(C)Cc1ccccc1)OCC(=O)N2 (stereo not drawn)	25.0	.
CC1(C)Oc2ccc3ccc(=O)oc3c2/C(=C/O)C1=O	18.0	.
COc1ccccc1N1CCN(C(=O)C(C)Nc2ccccn2)CC1 (stereo not drawn)	.	0.6
Cc1cc(-c2ccc(S(=O)(=O)NC(C)(C)C)s2)n[nH]1	4.0	.
COc1ccc(CC(=O)OCC(=O)Nc2cc(C)ccc2C)cc1	-12.0	1.3
CN1CCc2cccc3c2[C@H]1Cc1ccc(O)c(O)c1-3	.	3.8
CCOC(=O)c1cnc2c(C)c(C)ccc2c1NCCCN(C)C	65.0*	7.2
O=c1[nH]c(=S)[nH]c2c1cnn2-c1ccccc1	25.0	.
CCCc1ccc(-c2c(C)sc(N)c2C#N)cc1	15.0	0.4
CCCCOc1ccc(NC(=O)CCC)cc1	2.0	-1.8
COC(=O)NCCOc1nc(N(C)C)nc(N(C)C)n1	5.0	0.3
Cc1nc2ccc(NC(=O)[C@@H]3CCCN3S(=O)(=O)c3ccc4c(c3)OCCO4)cc2s1	-15.0	.
COC(=O)c1ccc(COC(=O)c2ccccc2NC(=O)Cc2ccccc2)o1	-3.0	.
Cc1nc(COc2ccc(/C(N)=N/O)cc2)cs1	.	-3.9
CCn1c(COc2ccccc2)nnc1SCC(=O)CC(=O)Nc1ccccc1OC	0.0	-1.0
O=S(=O)(/C=C/c1ccc(Cl)cc1Cl)NCc1cccs1	.	-1.2
CCC(C)NC(=O)CSc1nc2ccc(C(C)C)cc2cc1C#N (stereo not drawn)	15.0	-0.3
Cc1ccc(S(=O)(=O)Nc2cc(C(C)(C)C)sc2C(N)=O)cc1	.	-1.6
CC1CCc2cc(F)ccc2N1S(=O)(=O)c1ccc(N2CCCCS2(=O)=O)cc1 (stereo not drawn)	6.0	.
CC1Cc2ccccc2N1C(=O)COC(=O)c1ccc(S(=O)(=O)N2CCCC2)cc1 (stereo not drawn)	-14.0	.
Fc1ccc(-c2csc(-c3ccc(-c4cccs4)s3)n2)cc1F	-17.0	.

# Following part.
SMILES	Sa helicase inh	MgrA-DNA mod
Cc1ccc(-c2csc(N3CCC(C(N)=O)(N4CCCCC4)CC3)n2)cc1	-2.0	-0.3
CCOC(=O)c1cc(C)nn1-c1ccccc1	.	-2.2
O=C(Cc1ccsc1)OCc1nc2ccccc2s1	-8.0	.
COCc1c(C(=O)OCC(=O)c2ccc(Br)s2)oc2ccccc12	-5.0	.
CNCC(=O)Nc1c(C)n[nH]c1C	-4.0	.
Nc1cc(Cl)ccc1C(=O)OCC(=O)c1ccccc1	4.0	1.8
CC(C)NC(=O)c1ccc2c(=O)n(CCc3ccccc3)c(=O)[nH]c2c1	-32.0	.
CCCCNC(=O)c1ccc(F)cc1Cl	-2.0	-0.5
Cc1[nH][nH]c(=O)c1C(c1ccccc1)C(C#N)C#N (stereo not drawn)	3.0	.
COC(=O)C(Cc1ccccc1)NC(=O)c1cccc2ccccc12 (stereo not drawn)	.	-1.7
NN(C(=O)C1CCCCC1)c1nc2ccccc2s1	5.0	-1.6
C/C(=C\c1nsc(Nc2ccc(Cl)cc2)n1)NCc1ccc2c(c1)OCO2	4.0	0.6
O=C(NCc1ccccc1)c1ccccc1C(=O)c1ncc[nH]1	4.0	-1.1
COC(=O)C1C(=O)C2=C(CC1C)Nc1ccccc1NC2c1ccc(N(C)C)cc1 (stereo not drawn)	11.0	0.1
